Screening data (PubChem)
RecA splice inh: inhibitors of M. tuberculosis RecA intein splicing. P9WHJ3. cell-free RecA intein splicing, fluorescence. inhibition, %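 (about 9 µM by stock and volumes)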. actives 0.75% (n = 290,000); in the data active = inhibition above about 30%; inconclusive = no clear call, values can overlap the other calls;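 also: 0% = vehicle wells and 100% = reference inhibitor control wells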
Target sequence (P9WHJ3 whole entry, looked up, canonical isoform): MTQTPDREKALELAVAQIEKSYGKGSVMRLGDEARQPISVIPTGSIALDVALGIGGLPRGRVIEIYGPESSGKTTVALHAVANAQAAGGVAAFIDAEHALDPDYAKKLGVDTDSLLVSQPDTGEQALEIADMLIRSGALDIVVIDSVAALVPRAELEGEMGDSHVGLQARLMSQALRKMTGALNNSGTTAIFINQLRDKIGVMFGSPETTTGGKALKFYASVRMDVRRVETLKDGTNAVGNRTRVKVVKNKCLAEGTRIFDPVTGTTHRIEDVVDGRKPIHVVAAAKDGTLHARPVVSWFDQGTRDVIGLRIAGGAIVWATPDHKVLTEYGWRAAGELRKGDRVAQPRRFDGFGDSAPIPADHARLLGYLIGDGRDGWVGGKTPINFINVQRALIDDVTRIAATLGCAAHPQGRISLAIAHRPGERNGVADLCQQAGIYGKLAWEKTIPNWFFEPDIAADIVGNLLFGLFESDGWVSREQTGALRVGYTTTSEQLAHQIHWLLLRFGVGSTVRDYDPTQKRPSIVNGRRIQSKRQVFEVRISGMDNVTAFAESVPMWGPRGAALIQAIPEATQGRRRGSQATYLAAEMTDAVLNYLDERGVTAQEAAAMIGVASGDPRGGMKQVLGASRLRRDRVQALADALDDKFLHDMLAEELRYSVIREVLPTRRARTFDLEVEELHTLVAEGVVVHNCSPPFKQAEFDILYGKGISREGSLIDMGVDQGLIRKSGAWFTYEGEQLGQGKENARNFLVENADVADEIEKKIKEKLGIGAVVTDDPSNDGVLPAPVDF
Arbovirus inh: blocks arbovirus infection | arbovirus infection cell-based antiviral screen | actives 0.37% (n = 200,000) | inhibition, % at 10 µM;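 active = inhibition from about 30%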;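 also: bluetongue infection of BSR cells; cell survival read as ATP light after 72 h; 0% = infected wells without compound and 100% = uninfected wells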
Mtb growth: M. tuberculosis H37Rv growth inhibitors, H37Rv strain (AID 1626); M. tuberculosis H37Rv growth inhibition; higher % means a stronger effect; one-dose inhibition, % at 10 µM; IC50 in µM for titrated hits; actives 0.95% (n = 220,000);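 active = confirmed in a dose series; inconclusive = inhibition above 80% but not taken into the dose series; inactive = below 80% or under 30% at every dose of the series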;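 also: bacteria incubated seven days before Alamar blue readout; 0% = bacteria only wells and 100% = bacteria with antibiotic wells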
YopH inh: YopH (Yersinia) phosphatase inhibition | fluorescence Ex485/Em525 | inhibition, %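 (about 10 µM by stock and volumes)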 | actives 0.16% (n = 140,000);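 active = inhibition of 50% or more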;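 also: controls were vehicle for no effect and minimum signal wells for full effect; inactives centre near -20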
Mtb bLac sens: beta-lactam sensitization of Mtb H37Rv. inhibition, % at 25 µM. actives 0.27% (n = 330,000). AID 434955. M. tuberculosis H37Rv growth with meropenem, percent inhibition; hits of this screen are not shown here;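 active = about 74% or more and at least 40 points above the plate without the antibiotic, then above 30% in a dose series; inconclusive = first-round hits that could not be retested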;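 also: growth measured after seven days incubation then overnight dye step; 0% = bacteria only wells and 100% = bacteria with antibiotic; twin plates without the antibiotic show which effects depend on it; some results filed as inactive read as strong as hits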
* = called active by the depositor; u = inconclusive; x = no result given.

SMILES	RecA splice inh	Arbovirus inh	Mtb growth	YopH inh	Mtb bLac sens
Cc1cccc(NC(=S)N(CCCN2CCOCC2)C(C)c2cc3ccccc3o2)c1C (centres undefined)	5.2	4	2%	x	-3
CCCN1C[C@H](CSC)C[C@@H]2c3cccc4[nH]cc(c34)C[C@H]21	12	-1	6%	-5	3
CN(c1cccc(NC(=O)c2ccccc2N(C)S(=O)(=O)c2ccccc2)c1)S(C)(=O)=O	1.9	1	7%	-20	-3
COc1ccc(CN2CCNC(=O)C2CC(=O)N(C)CCc2cnn(C)c2)c(F)c1 (centres undefined)	0.4	x	x	x	-4
CCCCNC(=O)[C@@H]1CSC2c3ccccc3C(=O)N21 (some centres undefined)	0.6	x	x	x	-5
CC1(C(=O)O)CC(C)(C(=O)O)CC(C)(C(=O)O)C1 (centres undefined)	-0.2	-1	-1%	-17	-6
Cc1nnc(NC(=O)CN2CC(C)OC(C)C2)s1 (centres undefined)	-3.6	x	x	x	-1
Cc1cc(S(=O)(=O)c2ccc([N+](=O)[O-])cn2)ccc1Br	23	x	x	x	100
CCCCOc1cccc(C2C(C(=O)c3cccs3)=C(O)C(=O)N2Cc2cccnc2)c1 (centres undefined)	2.0	5	-1%	-28	-8
COc1ccc(OC)c(NC(=O)CSC2=NCCS2)c1	10	-4	-3%	9	-5
O=C(O)C(=O)/C(=C\c1cccc(Cl)c1)c1ccc2ccccc2n1	-5.4	11	-10%	x	20
O=c1oc2ccccc2cc1-c1ccc(O)cc1O	-6.2	-3	2%	-35	-5
CNc1nc(C)c(C(=O)OCC(=O)OC)s1	0.7	-3	-6%	-29	-3
Cc1nn(Cc2ccccc2)c(C)c1NC(=O)CSc1nc(C2CC2)nc2c1cnn2-c1ccccc1	2.6	-10	7%	-14	-6
CCOC(=O)N(Cc1ccccc1)C(C(=O)O)C(C(=O)O)N(Cc1ccccc1)C(=O)OCC (centres undefined)	0.8	22	-3%	-49	10
FC(F)(F)c1cnc(Sc2ncn[nH]2)c(Cl)c1	-0.6	8	3%	x	-4
CC12CCC(C(=O)NCc3cccnc3)(OC1=O)C2(C)C (centres undefined)	-3.4	-8	-4%	2	-8
O=c1c2ccccc2ncn1/N=C/c1ccccc1	-0.3	x	x	x	-9
COc1ccc(-c2cc3ccccc3oc2=O)cc1NC(=S)NC(=O)c1ccc2c(c1)OCCO2	-4.2	-10	5%	-27	u
O=C(NNC1=NCCC1)c1cccc(S(=O)(=O)N2CCOCC2)c1	0.9	1	-1%	-34	-13
COC(=O)c1cccc(NC(=O)c2nn(C(C)C)c(=O)c3ccccc23)c1	-5.7	5	-2%	-38	2
COc1nc(-c2ccccc2)c2cc(Br)ccc2n1	8.0	x	x	x	-5
CCc1ccc(-n2c(CSc3nnnn3-c3ccccc3)nc3ccccc3c2=O)cc1	-5.2	-8	6%	-32	-14
COc1ccccc1NS(=O)(=O)c1cccc2cccnc12	-0.3	-3	-5%	-27	0
Cc1ccccc1-n1nnnc1SCC(=O)N(C)C1CCS(=O)(=O)C1 (centres undefined)	0.2	3	3%	x	1
COc1cc(C2C(C#N)=C(N)Oc3n[nH]c(-c4ccncc4)c32)cc(OC)c1OC (centres undefined)	-3.9	2	x	-44	-2
Cc1ccc(C)c(NC(=O)c2ccccn2)c1	0.3	-2	-11%	-19	-6
CC(C)CNS(=O)(=O)c1cc(C(=O)OCC(=O)N(C)C2CCS(=O)(=O)C2)c(Cl)cc1Cl (centres undefined)	2.3	x	-6%	x	3
Cc1cc2ncn(CC(O)COc3cccc(C(=O)O)c3)c2cc1C (centres undefined)	-3.5	2	-15%	-6	-20
COC(=O)c1cccc(S(=O)(=O)N2CCOCC2)c1	-1.1	4	4%	-2	u
O=c1c2ccccc2nnn1CSc1nnc2ccccn12	-2.9	12	-3%	-35	2
CCOC(=O)C1=C(C)NC(C)=C(C(=O)OC)C1c1ccco1 (centres undefined)	-6.9	x	8%	x	2
C/C(CC(=O)NCCCN1CCOCC1)=N\NC(=O)COc1ccc(C)cc1	19	-6	-2%	-4	2
COc1cccc(C(=O)NC2CCCC2)c1	-1.6	-1	-11%	x	-2
Cc1csc(Cn2c(CN(C)C)nc3ccccc3c2=O)n1	0.5	3	5%	-22	-3
CCCN1CCN(C(=O)CS(=O)(=O)Cc2nc(-c3cccc(OC)c3)oc2C)CC1	-0.8	x	x	x	-9
CC(=O)Oc1ccc(C(=O)[C@H]2[C@H]3C(=O)N(c4ccc(C)cc4C)C(=O)[C@H]3[C@@H]3C=CC=NN32)cc1	20	x	-5%	x	2
Oc1cc(NCc2cccnc2)ccc1-c1nc2ccccc2o1	1.0	2	8%	-23	98
COc1ccc(C(=O)NCCNc2nc3ccc(C)cc3cc2C#N)cc1	-26	x	x	x	13
Cc1ccc(O)c(CN2CCN(c3ccccc3)CC2)c1	-1.2	5	-14%	-6	-6

Copied from the results shown (13 entries):
SMILES	RecA splice inh	Arbovirus inh	Mtb growth	YopH inh	Mtb bLac sens
CC(C)CNS(=O)(=O)c1cc(C(=O)OCC(=O)N(C)C2CCS(=O)(=O)C2)c(Cl)cc1Cl (centres undefined)	2.3	x	-6%	x	3
Cc1cc2ncn(CC(O)COc3cccc(C(=O)O)c3)c2cc1C (centres undefined)	-3.5	2	-15%	-6	-20
COC(=O)c1cccc(S(=O)(=O)N2CCOCC2)c1	-1.1	4	4%	-2	u
O=c1c2ccccc2nnn1CSc1nnc2ccccn12	-2.9	12	-3%	-35	2
CCOC(=O)C1=C(C)NC(C)=C(C(=O)OC)C1c1ccco1 (centres undefined)	-6.9	x	8%	x	2
C/C(CC(=O)NCCCN1CCOCC1)=N\NC(=O)COc1ccc(C)cc1	19	-6	-2%	-4	2
COc1cccc(C(=O)NC2CCCC2)c1	-1.6	-1	-11%	x	-2
Cc1csc(Cn2c(CN(C)C)nc3ccccc3c2=O)n1	0.5	3	5%	-22	-3
CCCN1CCN(C(=O)CS(=O)(=O)Cc2nc(-c3cccc(OC)c3)oc2C)CC1	-0.8	x	x	x	-9
CC(=O)Oc1ccc(C(=O)[C@H]2[C@H]3C(=O)N(c4ccc(C)cc4C)C(=O)[C@H]3[C@@H]3C=CC=NN32)cc1	20	x	-5%	x	2
Oc1cc(NCc2cccnc2)ccc1-c1nc2ccccc2o1	1.0	2	8%	-23	98
COc1ccc(C(=O)NCCNc2nc3ccc(C)cc3cc2C#N)cc1	-26	x	x	x	13
Cc1ccc(O)c(CN2CCN(c3ccccc3)CC2)c1	-1.2	5	-14%	-6	-6

New compounds follow.
SMILES	RecA splice inh	Arbovirus inh	Mtb growth	YopH inh	Mtb bLac sens
CC(=O)Nc1ccc(C2CC(c3ccc(Cl)cc3)=NN2c2ccccc2)cc1 (centres undefined)	-16	x	x	x	1
O=C(CCCCCNC(=O)N1CCn2c1nc1ccccc12)NCc1ccccc1	2.8	x	x	x	0
Cc1ccc(N/C=C/c2onc(C)c2[N+](=O)[O-])cc1	0.1	x	0%	x	-1
COc1cccc(/C(C#N)=C/c2c(-c3ccc(Cl)cc3)nc3c(C)cccn23)c1	14	5	15%	-25	-1
COc1cc(/C=N/NC(=O)Cn2cnc3ccccc3c2=O)ccc1O	-25	x	-4%	x	-5
CCOc1nc(NCCO)nc(Nc2ccccc2F)n1	-0.3	-4	-4%	x	1
CC(C)C[C@H](NC(=O)OC(C)(C)C)C(=O)N[C@@H](CO)[C@H](O)[C@@H]1C[C@@H]1C(=O)N(C)C	-1.9	x	x	x	5
CC(=O)Nc1ccc(S(=O)(=O)N2CCN=C2SCc2ccccc2C)cc1	0.7	x	x	x	-8
Cc1cc(C)c2sc(NC(=O)C3=COCCO3)nc2c1	-6.0	x	x	x	11
O=C(Nc1ccc2c(c1)OCCO2)C1CC(c2ccc(F)cc2)=NO1 (centres undefined)	1.2	x	x	x	1
O=C(Nc1ccccc1Cl)c1ccc(-n2cccn2)c([N+](=O)[O-])c1	1.4	-6	3%	x	-4
COc1cc(/C=C/C(=O)NCCc2ccc(S(N)(=O)=O)cc2)ccc1OCC#N	0.6	x	-3%	x	-3
CC(C)NCCOCCSc1ccc(Cl)cc1	1.6	-9	5%	-36	-5
COc1ccc(/C=N/Nc2ccc([N+](=O)[O-])cc2)cc1O	-1.8	x	x	x	88
COCCCNc1nc(N)c([N+](=O)[O-])c(N2CCCCCC2)n1	-1.1	x	x	x	-5
CS(=O)(=O)N(CC(=O)N1CCCCC1)c1sc2c(c1C#N)CCCC2	-0.5	3	-6%	-24	-10
COCCN(C(=O)c1ccccc1)c1nnc(-c2cccnc2)s1	-0.5	-1	-16%	-7	-7
C=CCc1cccc(/C=N/NC(=O)CNc2ccccc2)c1O	-0.8	-37	2%	3	5
CNC(=O)COc1coc(CN2CCN(Cc3ccccc3)CC2)cc1=O	-1.8	x	x	x	-5
O=C(NCc1ccccc1)C1=C[C@@H](c2csc3ccccc23)C[C@@H](OCc2ccc(CO)cc2)O1	10.0	-6	3%	x	12
CC1(C)Cc2ccccc2-c2nnnn21	-2.3	3	-11%	-33	-7
Cc1nnc(SCC(=O)N(C2CCCCC2)C2CCS(=O)(=O)C2)n1N (centres undefined)	0.0	x	x	x	1
COc1ccccc1-c1nnc(-c2ccc(C)cc2)o1	2.1	x	x	x	3
CCN1CCCC1CNC(=O)c1cc2c(-c3cccc(OC)c3)nn(C)c2s1 (centres undefined)	-1.2	-2	2%	-1	4
COc1cccc(/C=C/c2ccc3ccccc3n2)c1OC(C)=O	1.8	-18	-1%	x	-8
N#C/C(=C(/O)c1cccs1)c1nnc2n1CCCCC2	-2.8	5	-5%	x	0
CCOC(=O)c1c(-c2ccccc2)nc2ccccn12	-1.3	-3	-26%	-25	-2
Cc1ccc(N(Cc2cc(=O)[nH]c3ccccc23)C(=O)C(C)C)cc1	0.1	x	-12%	x	-6
O=C(COC(=O)c1n[nH]c2ccccc12)c1cccc(Br)c1	1.1	x	x	x	-12
O=C(Nc1cccc(CCc2ccccn2)c1)c1ccc(Cl)cc1	8.9	2	6%	x	4
Fc1ccccc1NC(=S)NN(Cc1ccccc1)c1ccccc1	5.3	-14	-2%	-15	-1
O=C(C1=C[C@H](c2ccc3c(c2)OCO3)C[C@H](OCCCCO)O1)N1CCN(Cc2ccc3c(c2)OCO3)CC1	-0.4	-7	-10%	x	-2
CC1(C)CC(=O)C(C2C3=C(CC(C)(C)CC3=O)Oc3c(Br)cc(Br)cc32)=C(O)C1 (centres undefined)	-2.8	x	x	x	7
O=C(Cn1nnc(-c2ccccc2Cl)n1)N/N=C/c1ccc2c(c1)OCO2	-1.2	2	-9%	-4	1
Cc1oc2ccccc2c1-c1cn2c(n1)SCC2	-0.3	10	-4%	55*	-6
Cc1cc(C(=O)Nc2ccc3c(c2)CCC3)ccc1[N+](=O)[O-]	-1.6	x	x	x	20
O=C1CSC(=S)N1/N=C/c1ccc(O)c(O)c1O	-1.2	x	-5%	x	-5
Cc1cccc(C)c1OCc1cc(C(=O)N2CCCC2c2nonc2C)no1 (centres undefined)	-0.3	x	x	x	9
CC(Sc1ncc(C(F)(F)F)cc1Cl)C(=O)NC(N)=O (centres undefined)	0.8	6	5%	x	-5
O=C(COc1ccc(/C=N/NS(=O)(=O)c2ccccc2)cc1)N1CCOCC1	0.8	10	-13%	x	8
COc1ccccc1C(OC(=O)c1cccs1)C(=O)NCc1ccco1 (centres undefined)	5.2	6	-2%	-43	0
CCN(CC(=O)Nc1ccccc1OC)C(=O)CCc1ccccc1	-0.9	x	x	x	3
CC1CCCN(C(=O)c2cc3c(=O)n4ccccc4nc3s2)C1 (centres undefined)	-39	x	x	x	18

An excerpt; the hit share may differ from the screen's.
